Screening data deposited in PubChem by Fisher Drug Discovery Resource Center.
NPYLR7 agonist = mosquito NPYLR7 agonism. 0.15% of 270,000 active. activation, % at 10 µM. HEK293T NPYLR7/Galpha15, GCaMP6s calcium fluorescence; in the data active = activation above about 40%;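 also: 0% = vehicle and 100% = reference agonist at the receptor; some compounds past the cut are filed as inactive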
NPYLR7 agonist max-min = also measured in NPYLR7 agonist; calls as there; activation, %; measured here: Max-Min RFU normalised activation; some inactives read as strong as hits;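 span of the calcium signal over five minutes; 0% = vehicle and 100% = native peptide agonist; compound fluorescence can raise it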
* marks the source's active call; other numbers are inactive results; & = joins results of further samples. The list is partial; count on the stated rates, not on these rows.

A first look:
Order of results – NPYLR7 agonist	NPYLR7 agonist max-min
OC(CN1CCC(c2ccccc2)C1)c1ccc2c(c1)OCCO2 (stereo not given)
  -1	0
O=c1c2ccccc2nc2c3ccccc3c(N3CCOCC3)nn12
  1	-2

Results, from the first entry:
Order of results – NPYLR7 agonist	NPYLR7 agonist max-min
OC(CN1CCC(c2ccccc2)C1)c1ccc2c(c1)OCCO2 (stereo not given)
  -1	0
O=c1c2ccccc2nc2c3ccccc3c(N3CCOCC3)nn12
  1	-2
CCCC(=O)N1CCC1(C)C(=O)NS(=O)(=O)c1cccc(Cl)c1 (stereo not given)
  4	3
CCN(CC)C(=O)C1CCCN(Cc2nc(-c3ccc(OC)cc3F)oc2C)C1 (stereo not given)
  19	7
CCCCS(=O)(=O)N1CCC(n2cc(CCC)nn2)CC1
  1	0
COc1ccc(S(=O)(=O)N2CCCN(C(=O)CN3CCc4sccc4C3c3cccc(F)c3)CC2)cc1 (stereo not given)
  16	21
CC1(C)Cc2cccc(OCC(=O)NC3CCOc4ccccc43)c2O1 (stereo not given)
  6	3
CC(C)N(Cc1ccc(OS(=O)(=O)c2ccc(F)cc2)cc1)C(=O)Nc1ccccc1C(F)(F)F
  -6	-3
O=C(/C=C/c1ccc(F)cc1)Nc1nc(-c2ccc(F)cc2)cs1
  4	4
CO[C@H]1CN(Cc2cccc(Cl)c2Cl)CC[C@H]1N
  21	12
O=C1c2ccccc2C(=O)N1CCCOc1ccc(Br)cc1Cl
  -6	1
O=C(NCCNC(=O)[C@H]1CCCN1C(=O)c1ccc(Cl)cc1Cl)c1ccccc1
  5	18
Cc1ccc(-c2ccc(OCCNS(=O)(=O)c3ccc(C)c(C)c3)nn2)cc1
  -1	-7
CC1CN(C(=O)CN2CCc3sccc3C2c2cccc(F)c2)CCN1C(=O)C(C)(C)CCl (stereo not given)
  7	18
CC1CC(NC(=O)c2c(F)cccc2I)C1 (stereo not given)
  -3	15
Cc1cccc2cc(C(=O)N3CCC4(CC3)C(=O)Nc3ccccc34)oc12
  -3	-6
CC(=O)Oc1cccc(C(=O)N2CCN(c3nccc(-c4ccc5c(c4)OCO5)n3)CC2)c1C
  6	2
N#CC(=Cc1ccccc1S(=O)(=O)O)S(=O)(=O)c1ccccc1
  -1	-4
CC1=CS(=O)(=O)CC1Sc1nc2ccccc2[nH]1 (stereo not given)
  8	10
CC(C)NC(=O)C(C#N)=Cc1ccc(O)cc1
  4	14

Next part
Order of results – NPYLR7 agonist	NPYLR7 agonist max-min
CCc1ccccc1NC(=O)c1cn(CC2CCCO2)cc2c(=O)n(-c3ccccc3)nc1-2 (stereo not given)
  4	2
CC(=O)N1CCC(NCCn2c(C)cc3ccccc32)CC1
  1	1
CC(C)(O)C#Cc1cccc(C(=O)NCc2csc(N)n2)c1
  7	5
COc1ccc(-n2ccnc2-c2c(C)n(C)n(-c3ccccc3)c2=O)cn1
  -1	-3
CC(=O)c1ccc(S(=O)(=O)NCCOc2ccc3nnc(-c4ccccc4)n3n2)cc1
  8	5
O=C1C2C(C(=O)N1c1ccncc1)C1C=CC2C12CC2 (stereo not given)
  0	-1
CCCCn1c(=O)[nH]c(=O)c2c(C(=O)OCC)cc(-c3cccnc3)nc21
  0	-1
O=C(COCc1ccccc1Cl)N1CCN(c2ccc(Br)cn2)CC1
  2	-3
COc1ccc(CN(CC2CCCO2)C(=O)c2cccc(F)c2)cc1OS(C)(=O)=O (stereo not given)
  3	4
COCCCN(Cc1c(C)nn(-c2cccc(F)c2)c1N1CCN(C)CC1)S(=O)(=O)c1ccc(Cl)cc1
  1	7
CCN(CC)CCSc1nc(O)c(C)c(=O)[nH]1
  -1	-5
CCOC(=O)c1nn(CC)c2c1CN(C(=O)C1CC=CCC1)CC2 (stereo not given)
  1	-3
COc1cc(NC(=O)Nc2ccc3n(c2=O)C[C@H]2C[C@@H]3CN(c3ncccn3)C2)cc(OC)c1
  -11	-15
c1cc2c(cc1-c1csc(NNC3=NCCCCC3)n1)OCCO2
  5	2
Cn1c(SCc2nc3cc(C(=O)O)ccc3c(=O)[nH]2)nnc1C(F)(F)F
  1	-1
CC(C)NC(=O)CSc1nc2ccccc2c(=O)n1C1CC1
  -1	1
CS(=O)(=O)c1ccc(C(=O)Nc2nc(-c3ccccc3Cl)cs2)cc1
  1	1
COc1cc2c(cc1C1CC(=O)Nc3c1c(C)nn3C)OCCO2 (stereo not given)
  1	0
Cc1cc(C)c(S(=O)(=O)NC(C)c2nnc(SCc3ccccc3)n2-c2cc(Cl)ccc2C)c(C)c1 (stereo not given)
  25	20
O=c1[nH]c(=O)c2nc3c(ccc4nsnc43)nc2[nH]1
  3	1

Next entries:
Order of results – NPYLR7 agonist	NPYLR7 agonist max-min
Cc1c(C)n2c3c(=O)n(Cc4ccc(F)cc4)c(=O)n(C)c3nc2n1CCN1CCOCC1
  0	11
Cc1ccccc1Cn1ccnc1CNC1CCCCC1
  -12	-7
COCCNC(=O)C(NC(=O)c1ccc(OC)cc1)C1CCN(C(=O)NC(C)(C)C)CC1 (stereo not given)
  -2	2
CCC(NC1CCN(c2ccc3c(c2)OCO3)CC1)c1ccnn1C (stereo not given)
  0	0
Cc1ccc(C(c2ccccc2)N2CCN(S(=O)(=O)c3c(C)nn(C)c3C)CC2)cc1 (stereo not given)
  28	12
O=C(NC(Cn1cccn1)c1ccccc1)c1cc2n(n1)CCNC2 (stereo not given)
  -1	-6
CCn1c(SCc2ccc(C(=O)N3CCN(c4ccccc4F)CC3)cc2)nnc1-c1cccs1
  5	8
O=C(c1[nH]ncc1Cl)N1CCCC(c2n[nH]c(=O)n2-c2ccccc2)C1 (stereo not given)
  3	1
CN1CCN(/N=C\C2=Cc3cc(Cl)cc(Cl)c3OC2)CC1
  2	-1
Cc1ccc2scc(CN3CCCC3)c2c1
  -1	11
COc1cccc(CNC(=O)CCC2CCCN(C(=O)CSC)C2)c1 (stereo not given)
  19	1
O=C(CCSc1ccc2c(c1)OCCO2)N1CCC(Oc2ncccn2)CC1
  5	4
COC(=O)C1CC2(CCN(C(=O)c3ccc(NC(C)=O)cc3)CC2)c2ccccc21 (stereo not given)
  3	11
COC12C=CC(CC1=O)c1c(Cl)c(Cl)c(Cl)c(Cl)c12 (stereo not given)
  5	4
COc1ccc(CN(C)c2c(C)nc3c(OCCc4cccc(OC)c4)cccn23)cc1
  15	5
COCCN(CCCc1ccccc1)CC(=O)NC(C)(C#N)C1CC1 (stereo not given)
  0	-1
O=C(CSC1=NCCS1)Nc1nc2c(s1)CCCC2
  5	3
COc1cn(CC(=O)NCc2ccc(F)cc2)c(CSc2nnnn2C)cc1=O
  -4	-9
CN(C)CC1(O)CCCN(c2cnc3ccccc3n2)CC1 (stereo not given)
  4	-5
CCOc1ccccc1N(CCCN1C(=O)c2cccc3cccc(c23)C1=O)C(=O)c1ccccc1
  -4	-5

(more compounds)
Order of results – NPYLR7 agonist	NPYLR7 agonist max-min
Cn1cccc1C(=O)Nc1ccc2nc([C@H]3C[C@H](O)[C@@H](CO)O3)[nH]c2c1
  11	16
O=C(O)CCc1nn2c3ccccc3n(CCOc3ccccc3)c2nc1=O
  5	2
O=C(NC1CC1)c1nnn(-c2ccccc2)c1CSc1ncccn1
  -3	-8
CN1C(C(=O)Nc2ccccn2)=C(O)c2sc(Cl)cc2S1(=O)=O
  -8	2
CCCCCCc1ccc(C(=O)N2CCC3(CC2)SCCN3C(=O)c2ccc(Cl)cc2)cc1
  8	15
CC(C)CCN(Cc1ccsc1)CC(O)COC(C)C (stereo not given)
  19	10
CCc1nc(C)c(CC(=O)N2CCC3(CCNCC3)CC2)c(=O)[nH]1
  8	3
Cc1ccsc1CN(C)C(C)C(=O)Nc1ccc(F)cc1F (stereo not given)
  5	3
Cc1noc(C)c1CSc1ncnc2sc3c(c12)CCC3
  6	3
COc1cc(OC)cc(-c2ccc(CN3CCNCC3)cc2)c1
  20	10
COc1ccc(C2OCC3(CCCC4(COC(c5ccc(OC)cc5)OC4)C3=O)CO2)cc1 (stereo not given)
  0	2
CC[C@H]1OC(=O)[C@H](C)[C@@H](O[C@H]2C[C@@](C)(OC)[C@@H](O)[C@H](C)O2)[C@H](C)[C@@H](O[C@@H]2O[C@H](C)C[C@H](N(C)C)[C@H]2O)[C@](C)(O)C[C@@H](C)/C(=N/OCOCCOC)[C@H](C)[C@@H](O)[C@]1(C)O
  -11	-14
CCOC(=O)CCC(=O)N1CCN(Cc2nc(C(C)(C)C)cs2)CC1
  -7	-14
Cc1nn(C)c2nc(-c3ccco3)cc(C(=O)NC3CCS(=O)(=O)C3)c12 (stereo not given)
  -3	-5
NC(=O)[C@@H]1CCCN1c1ccc(-c2nc(CCCc3ccccc3)no2)cn1
  5	2
Cc1sc2nc(CCN)nc(N(C)CCc3ccccn3)c2c1C
  4	23
Cc1cccc(C(=O)N2CCCCC2C(=O)Nc2cccc(-c3nnc(C)s3)c2)n1 (stereo not given)
  2	-3
COCCN(Cc1cccs1)CC1CCOC1 (stereo not given)
  2	-5
CN(C)c1cccc(C(NC(=O)c2cccnc2Oc2ccc(Cl)cc2)c2ccc(S(C)(=O)=O)cc2)c1 (stereo not given)
  4	-3
CCOC(=O)CCCCCC(=O)Nc1cc(-c2onc3c2CCc2ccccc2-3)ccc1OC
  6	1

Other records
Order of results – NPYLR7 agonist	NPYLR7 agonist max-min
COc1ccccc1-n1nc(C(C)C)nc1-c1cccc(-n2cnnc2)n1
  -5	-8
CC(C)N1CCC(CNC(=O)CCC2CCCC2)C1 (stereo not given)
  23	16
COc1cc(C=C(C#N)C(=O)OC(C)C)cc(Cl)c1O
  83*	80*
COc1cccc(C(=O)CN2C(=O)NC3(CCCc4sccc43)C2=O)c1 (stereo not given)
  -4	-7
CCn1c(SCc2cccc(-n3cccc3)c2)nnc1-c1cc(-c2ccccc2)nc2ccccc12
  -3	6
CCOC(=O)c1cc(-c2ccc(N3CCN(C(=O)c4cccs4)CC3)cc2)n(-c2cccc(F)c2)n1
  24	14
COC(C)(C)CCCC(C)Cc1nc2ccc(-n3cnnn3)cc2[nH]1 (stereo not given)
  3	0
CC(C)[C@H](N)C(=O)N[C@@H](Cc1c[nH]c2ccccc12)C(=O)O
  -6	-9
COc1ccc2[nH]c3c(c2c1)CCN(C(=O)c1ccc(C)c(C)c1)C3c1ccccc1OC (stereo not given)
  9	-4
CC1(C)[C@@H](OC(=O)CCC(=O)O)CC[C@]2(C)[C@H]3C(=O)C=C4[C@@H]5C[C@@](C)(C(=O)O)CC[C@]5(C)CC[C@@]4(C)[C@]3(C)CC[C@@H]12
  -4	-7
COc1ccc(Cl)c2sc(N(Cc3cccnc3)C(=O)c3ccccc3)nc12
  18	12
COC(=O)c1ccc(C(=O)Nc2c3c(nn2-c2nc4ccccc4s2)CCC3)cc1
  2	0
C[C@@H]1CC2C3CCC4=CC(=O)C=C[C@]4(C)[C@@]3(F)[C@@H](O)C[C@]2(C)[C@@]1(O)C(=O)COP(=O)(O)O (stereo not given in full)
  0&-9	-6&-13
COc1ccc(CN2CCN(C3CCC3)CC2CCO)c(F)c1 (stereo not given)
  14	7
Cc1cc(NC(=O)c2cccc(CN3CCCC3)c2)n[nH]1
  -22	-21
CCSc1ccccc1C(=O)Nc1cc(-c2ccco2)nn1-c1nc(C)c(C)c(=O)[nH]1
  0	-1
Cc1ncc(C)c(-c2cccc3ccsc23)n1
  -1	5
Cc1cc(-c2c(-c3ccccc3)ncn2Cc2ccc(CO)cc2)n[nH]1
  3	26
CCCCCC(=O)N(CCC)CC(=O)NCC(=O)Nc1ccccc1
  4	6
Cc1n[nH]c(C)c1Sc1ccccc1NC(=O)CC1CCC(=O)N1 (stereo not given)
  6	0

6 entries from above, sorted by SMILES length, lowest first.
Order of results – NPYLR7 agonist	NPYLR7 agonist max-min
Cc1ncc(C)c(-c2cccc3ccsc23)n1
  -1	5
CC(C)N1CCC(CNC(=O)CCC2CCCC2)C1 (stereo not given)
  23	16
CCCCCC(=O)N(CCC)CC(=O)NCC(=O)Nc1ccccc1
  4	6
COc1ccccc1-n1nc(C(C)C)nc1-c1cccc(-n2cnnc2)n1
  -5	-8
CC(C)[C@H](N)C(=O)N[C@@H](Cc1c[nH]c2ccccc12)C(=O)O
  -6	-9
CCn1c(SCc2cccc(-n3cccc3)c2)nnc1-c1cc(-c2ccccc2)nc2ccccc12
  -3	6

Further records:
Order of results – NPYLR7 agonist	NPYLR7 agonist max-min
OCCC1CN(Cc2cnc(-c3ccccc3)s2)CCN1Cc1ccccc1F (stereo not given)
  -5	-5
C=CCNC(=O)C1CC(=O)N(C2CCCCC2)C1 (stereo not given)
  11	10
CC(C)C(=O)Nc1cccnc1-c1cccc2c1CCNC2
  0	10
CCCC(Sc1nnc(-c2ccco2)n1-c1cccc(C(F)(F)F)c1)C(=O)OCC (stereo not given)
  -1	6
O=C(NNC(=O)c1cc(-c2ccccc2)no1)c1ccco1
  8	4
CCOc1ccc(C(C)(C)C)cc1S(=O)(=O)Nc1ccccn1
  1	-1
Cn1c(=O)c2[nH]c(CN3CCN(CCO)CC3)nc2n(C)c1=O
  1	21
CCCCc1ccc(S(=O)(=O)NC(=O)C2(C)CCN2C(=O)c2cccc(F)c2)cc1 (stereo not given)
  -2	-5
COCCCN(CC(=O)N(Cc1ccccc1)Cc1ccco1)C(=O)Nc1ccc(C)cc1C
  -3	-1
COc1ccc(CCN2C3CCC2CC(NC(=O)C24CC[C@@](C)(C(=O)O2)C4(C)C)C3)cc1OC (stereo not given in full)
  4	7
Cc1cc(C(=O)NNC(=O)c2nn(-c3ccccc3)c(C)cc2=O)c(C)o1
  1	-4
Cn1c(NCC2CCCc3ccccc32)c(C#N)c(=O)n(C)c1=O (stereo not given)
  1	-1
Cc1ccccc1C(NC(=O)c1cn[nH]n1)c1ccncc1 (stereo not given)
  -3	-9
COCCNC(=O)c1cccnc1NC(C)C
  6	5
C=CCSc1nnc(N)s1
  3&13	2&18
CCCCCOC1CN(C(=O)c2ccc(NC(=O)C3CC3)s2)C1
  -10	-11
